Source: PubChem BioAssay
Polio RdRp inh = inhibitors of poliovirus RNA polymerase binding and polymerization | poliovirus polymerase elongation, fluorescence polarization; stronger effect = lower value | % elongation, % (compound at 16.7 µg/mL) | actives 0.66% (n = 150,000); in the data active = % elongation below about 90%; note: some results filed as inactive read as strong as hits
Target sequence (P03300 1749-2209 limits assumed): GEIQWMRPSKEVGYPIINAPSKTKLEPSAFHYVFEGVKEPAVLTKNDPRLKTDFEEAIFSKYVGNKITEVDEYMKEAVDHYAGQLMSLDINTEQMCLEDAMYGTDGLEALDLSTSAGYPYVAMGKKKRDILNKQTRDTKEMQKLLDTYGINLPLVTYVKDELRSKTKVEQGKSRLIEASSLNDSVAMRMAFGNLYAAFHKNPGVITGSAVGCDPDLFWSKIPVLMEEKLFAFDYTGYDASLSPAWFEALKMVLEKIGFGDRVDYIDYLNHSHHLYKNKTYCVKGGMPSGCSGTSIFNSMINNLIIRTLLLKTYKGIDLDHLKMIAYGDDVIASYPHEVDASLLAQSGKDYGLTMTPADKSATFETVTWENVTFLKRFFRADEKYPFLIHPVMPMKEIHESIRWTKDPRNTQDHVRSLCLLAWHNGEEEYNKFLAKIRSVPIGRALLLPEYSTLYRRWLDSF
Mtb MbtI inh = MbtI salicylate synthase inhibition; actives 0.89% (n = 100,000); P9WFX0; purified MbtI enzyme, fluorescence intensity read-out; inhibition, %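 (about 17 µg/mL by stock and volumes)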;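 active = above 50% in both replicates, above 80% if mildly self-fluorescent; inactive = the rest, strongly fluorescent compounds included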;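 note: 0% = mean of negative and 100% = mean of positive controls; one replicate is shown; some compounds called inactive have numbers as strong as hits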
Target sequence (P9WFX0 whole entry, looked up): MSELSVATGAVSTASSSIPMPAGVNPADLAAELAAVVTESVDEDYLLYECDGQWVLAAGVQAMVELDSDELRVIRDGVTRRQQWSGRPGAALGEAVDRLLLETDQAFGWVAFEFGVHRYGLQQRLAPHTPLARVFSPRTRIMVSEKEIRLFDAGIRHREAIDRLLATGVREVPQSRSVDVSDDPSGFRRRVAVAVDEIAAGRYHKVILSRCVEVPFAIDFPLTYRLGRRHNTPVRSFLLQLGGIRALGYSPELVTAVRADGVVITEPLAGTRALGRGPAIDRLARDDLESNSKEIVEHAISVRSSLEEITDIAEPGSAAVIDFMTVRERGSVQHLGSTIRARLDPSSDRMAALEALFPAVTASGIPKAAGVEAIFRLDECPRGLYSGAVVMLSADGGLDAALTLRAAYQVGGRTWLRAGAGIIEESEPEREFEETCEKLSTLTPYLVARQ
MenB inh = inhibitors of Mycobacterium tuberculosis MenB enzyme | MenB enzyme assay, absorbance read-out; some hits fall short of the stated cut | inhibition, %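 (about 12 µg/mL by stock and volumes)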 | actives 0.43% (n = 100,000);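 active = mean of two replicates above 30%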;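 note: 0% = no compound and 100% = wells with inactive enzyme; the first replicate is given; strong numbers were not always called active; inactives centre near -10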
Polio RdRp inh intensity = also measured in Polio RdRp inh; calls as there; % elongation; measured here: total intensity read-out; formula for this scale not given here;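 total fluorescence in place of polarization; lower means less elongation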
* hit, by the source's call; i = inactive; x = no result given; & = joins results of further samples.

Field names: A = Polio RdRp inh; B = Polio RdRp inh intensity; C = Mtb MbtI inh; D = MenB inh
1) N#Cc1c(N)n(-c2cccc(N)c2)c2nc3ccccc3nc12
  A = 105	B = 116	C = -57	D = -91

2) Cc1cc(C)n(C(C)CC(=O)NC2CCC(C)CC2)n1 (stereo unspecified)
  A = 103	B = 101	C = -17	D = -16

3) O=C1C(c2ccccc2)=Nc2ccccc21
  A = 99	B = 96	C = 34	D = x

4) COc1ccc(-c2c3c(nc4sc(C(=O)N5CCCCCC5)c(N)c24)CC(C)(C)CC3=O)cc1
  A = 104	B = 106	C = -27	D = -14

5) Cc1oc2c(c1C(=O)N1CCc3ccccc31)C1=NCCN1C=N2
  A = 101	B = 103	C = -3	D = 13

6) O/C(=C\c1nc2ccccc2[nH]1)C(F)(F)F
  A = 103	B = 96	C = 0	D = x

7) CCOc1ncccc1C(=O)N(CC)CC(=O)NCc1ccc(Cl)cc1
  A = 105	B = 98	C = 8	D = 13

8) O=C(O)c1ccc(/C=N/N2C(=O)c3cccc4cccc(c34)C2=O)cc1
  A = 100	B = 101	C = x	D = 4

9) CCCN1CCC(Nc2ccc(SC)cc2)CC1
  A = 99	B = 98	C = -17	D = -20

10) CCc1ccc(-c2nc(CSCC(=O)N3CCN(c4ccccc4)CC3)c(C)o2)cc1
  A = 100	B = 103	C = 0	D = -8

11) CCOC(=O)c1c(C)oc2ncnc(NC(C(=O)OCC)C(C)O)c12 (stereo unspecified)
  A = 99	B = 104	C = -3	D = 6

12) Clc1ncnc2c1oc1ccccc12
  A = 96	B = 98	C = 82	D = 27

13) CCOC(=O)Nc1ccc2c(CN3CCN(S(=O)(=O)c4ccccc4)CC3)cc(=O)oc2c1
  A = 100	B = 112	C = -8	D = 9

14) NC(=O)C(F)(F)c1ccccc1
  A = 105	B = 104	C = -3	D = x

15) CCOc1ccc2[nH]c(S(=O)(=O)CC)nc2c1Cl
  A = 101	B = 101	C = 3	D = -6

16) S=C1NC2Nc3ccccc3C2=NN1CC1CCCO1 (stereo unspecified)
  A = 105	B = 107	C = 12	D = -32

17) CN(C)c1ccc(NC(=O)COC(=O)c2cc(Br)ccc2Cl)cc1
  A = 101	B = 101	C = -9	D = x

18) Cc1cccc(OCc2nnc(SCC(=O)N(C(C)C)C(C)C)n2Cc2ccco2)c1C
  A = 103	B = 103	C = 49	D = -30

19) CC1=Nc2cccc3cccc(c23)N1c1ccccc1
  A = 102	B = 105	C = -10	D = x

20) CCc1nnc2n1N=C(c1ccc(-c3ccc(Cl)cc3Cl)o1)CS2
  A = 97	B = 107	C = 4	D = -12

21) COCCn1c(SCC(=O)NC(=O)CN2CCCC2=O)nc2ccccc2c1=O
  A = 101	B = 112	C = -1	D = -31

22) CC(=O)NC1C(=O)Nc2ccccc2S(=O)(=O)C1c1ccccc1 (stereo unspecified)
  A = 102	B = 103	C = -3	D = 4

23) Cc1nc2cc(NC(=O)CCS(=O)(=O)c3ccccc3)ccc2s1
  A = 100	B = 100	C = -8	D = -9

24) COCCn1c(C)cc(C(=O)COC(=O)Cn2c(C)csc2=O)c1C
  A = 100	B = 102	C = 1	D = 5

25) CCOC(=O)c1cc(S(=O)(=O)N(C)Cc2ccccc2)cn1C
  A = 103	B = 98	C = -5	D = -13

The last 2 records of the part before are carried over, then new ones follow.
Field names: A = Polio RdRp inh; B = Polio RdRp inh intensity; C = Mtb MbtI inh; D = MenB inh
24) COCCn1c(C)cc(C(=O)COC(=O)Cn2c(C)csc2=O)c1C
  A = 100	B = 102	C = 1	D = 5

25) CCOC(=O)c1cc(S(=O)(=O)N(C)Cc2ccccc2)cn1C
  A = 103	B = 98	C = -5	D = -13

26) Cc1ccc(S(=O)(=O)Nc2cccc3ccccc23)cc1
  A = 103	B = 108	C = x	D = 6

27) COc1cc2nc(N(C)CCCNC(=O)C3CCCO3)nc(N)c2cc1OC (stereo unspecified)
  A = 100&104	B = 98&102	C = i	D = 8&-13

28) CNS(=O)(=O)c1cc(C(=O)N2CCCCC2)ccc1OC
  A = 102	B = 104	C = 0	D = -4

29) O=C(COC(=O)c1ccc(O)cc1)Nc1nccs1
  A = 104	B = 105	C = 7	D = 1

30) CCOC(=O)c1[nH]c(C)c(C(=O)OCC(=O)c2cc(C)n(-c3nccs3)c2C)c1C
  A = 106	B = 94	C = -4	D = -28

31) COc1ccc(NC(=O)N2CCn3c2nc2ccccc23)cc1
  A = 101	B = 104	C = -11	D = -10

32) Cc1c(CNC2CCCc3ccccc32)c(C(=O)O)c(C)n1Cc1c(F)cccc1Cl (stereo unspecified)
  A = 100	B = 106	C = -5	D = -1

33) CSc1nc2cc(Oc3ccc4ccccc4c3)c(Cl)cc2[nH]1
  A = 103	B = 97	C = x	D = -32

34) O=C(Nc1ccc(F)cc1)C(Sc1nnc(C2CC2)o1)c1ccccc1 (stereo unspecified)
  A = 96	B = 102	C = 55*	D = -4

35) O=C(O)c1ccccc1SCc1cn2ccccc2n1
  A = 100	B = 107	C = 11	D = 13

36) O=c1c2sccc2[nH]c(=S)n1CC1CCCO1 (stereo unspecified)
  A = 100	B = 98	C = 27	D = -2

37) CCc1noc(C)c1C(=O)Nc1cccc(Cn2cc(Cl)cn2)c1
  A = 99	B = 100	C = -9	D = -16

38) O=C(COC(=O)C1(c2ccc(F)cc2)CCCC1)N1CCN(C(=O)c2ccco2)CC1
  A = 102	B = 105	C = -10	D = 10

39) CCc1ccc(C2C(C#N)=C(N)N(N3CCOCC3)C3=C2C(=O)CC(C)(C)C3)cc1 (stereo unspecified)
  A = 101	B = 100	C = -4	D = -20

40) Cc1cccc(NC(=O)C2CC(=O)NC(Nc3nc4ccccc4s3)=N2)c1 (stereo unspecified)
  A = 102	B = 104	C = -12	D = -42

41) CC(C)Cn1cc(C(=O)N2CCCC2)c2c3ccccc3n(C)c2c1=O
  A = 102	B = 105	C = 109	D = -25

42) CCN1C(=O)CC(N2CCC(Nc3ccc(OC)cc3)CC2)C1=O (stereo unspecified)
  A = 101	B = 102	C = -15	D = -38

43) Cc1cc(C)n2nc(-c3ccc(C(C)(C)C)cc3)cc2n1
  A = 108	B = 108	C = -11	D = -13

44) CC1CN(CC(O)COCc2ccc(Cl)cc2)CCN1CC(O)COCc1ccc(Cl)cc1 (stereo unspecified)
  A = 107	B = 112	C = -19	D = -3

45) O=C(CSc1nc2ccccc2s1)NCCC12CC3CC(CC(C3)C1)C2
  A = 96	B = 101	C = x	D = -19

46) Cc1nn(-c2ccccc2Cl)c2nc(-c3ccco3)cc(C(=O)NN)c12
  A = 88*	B = 85*	C = 103	D = 2

47) COc1cccc(CSc2nnc(-c3cc4occc4n3C)n2-c2ccccc2C)c1
  A = 103	B = 103	C = 11	D = -65

48) CC(C)CCNC(=O)C1CCC(Cn2c(=O)[nH]c3ccccc3c2=O)CC1 (stereo unspecified)
  A = 106	B = 109	C = 1	D = -12

49) COc1cc(NS(=O)(=O)c2ccc(NC(=O)c3ccccc3)cc2)nc(OC)n1
  A = 102	B = 107	C = 0	D = -20

50) CC(C)C(C)(C#N)Nc1ccccc1 (stereo unspecified)
  A = 106	B = 104	C = -8	D = -2

An excerpt of these results, as labelled records.
34) O=C(Nc1ccc(F)cc1)C(Sc1nnc(C2CC2)o1)c1ccccc1 (stereo unspecified)
  Polio RdRp inh: 96	Polio RdRp inh intensity: 102	Mtb MbtI inh: 55*	MenB inh: -4
28) CNS(=O)(=O)c1cc(C(=O)N2CCCCC2)ccc1OC
  Polio RdRp inh: 102	Polio RdRp inh intensity: 104	Mtb MbtI inh: 0	MenB inh: -4
31) COc1ccc(NC(=O)N2CCn3c2nc2ccccc23)cc1
  Polio RdRp inh: 101	Polio RdRp inh intensity: 104	Mtb MbtI inh: -11	MenB inh: -10
30) CCOC(=O)c1[nH]c(C)c(C(=O)OCC(=O)c2cc(C)n(-c3nccs3)c2C)c1C
  Polio RdRp inh: 106	Polio RdRp inh intensity: 94	Mtb MbtI inh: -4	MenB inh: -28

Additional records:
Field names: A = Polio RdRp inh; B = Polio RdRp inh intensity; C = Mtb MbtI inh; D = MenB inh
51) C/C(=N\NC(=O)O)c1ccc(Oc2ccccc2)cc1
  A = 102	B = 99	C = 0	D = -14

52) O=C(O)CCCC=C(c1ccccc1)c1ccccc1
  A = 101	B = 106	C = x	D = -15

53) Cc1ccc(NC(=O)C(C)OC(=O)C2CCN(c3ccc(C(F)(F)F)cn3)CC2)cc1 (stereo unspecified)
  A = 104	B = 110	C = -8	D = -18

54) CS(=O)(=O)N(CC(=O)NC1CC1)c1ccccc1
  A = 99	B = 105	C = -14	D = 0

55) CN1C(=O)S/C(=C\c2cc(Cl)c(OCC(=O)O)c(Cl)c2)C1=O
  A = 103	B = 107	C = -1	D = 9

56) Cc1cccc2c1-c1sc(C(=O)NC3CCCC(C)C3C)cc1CO2 (stereo unspecified)
  A = 101	B = 101	C = 108	D = 6

57) Cc1sc2ncnc(SCC(=O)O)c2c1C
  A = 99	B = 100	C = x	D = 5

58) CN(C)CCNC(=O)c1ccc(-n2c(-c3ccccc3)nc3cccnc32)cc1
  A = 94	B = 105	C = 3	D = -12

59) CCCCNc1nc2ccccc2n1Cc1ccc(C#N)cc1
  A = 106	B = 104	C = 0	D = 7

60) O=C1Nc2c(c3ccccc3oc2=O)Nc2ccccc21
  A = 102	B = 102	C = 0	D = 11

61) O=c1[nH]c(CSc2nnc(Cc3cccs3)n2C2CCCCC2)nc2ccsc12
  A = 107	B = 108	C = 5	D = -28

62) Cc1cccc(-c2nc(CN3N=C(N4CCOc5ccc(Cl)cc54)CCC3=O)c(C)o2)c1
  A = 104	B = 105	C = -10	D = -41

63) O=C(C(C(=O)N1CCCCC1)C12CC3CC(CC(C3)C1)C2)N1CCCCC1
  A = 103	B = 100	C = x	D = 6

64) O=c1[nH][nH]c(=S)n1CC1CCCO1 (stereo unspecified)
  A = 95	B = 96	C = 83	D = -17

65) CCCn1nc(C(=O)O)ccc1=O
  A = 102	B = 106	C = -7	D = -4

66) CCOC(=O)c1ccccc1NC(=O)CSc1nc2c(oc3ccccc32)c(=O)n1C1CCCC1
  A = 99	B = 104	C = -4	D = -11

67) O=C(CSc1nc(C(F)(F)F)nc2ccccc12)N1CCNC1=O
  A = 106	B = 105	C = 15	D = -1

68) CC(Sc1cccc[n+]1[O-])C(=O)NC1CCCCC1C (stereo unspecified)
  A = 100	B = 106	C = 90	D = 8

69) CC1CN(C(=O)c2ccccc2C(=O)c2ncc[nH]2)CC(C)O1 (stereo unspecified)
  A = 107	B = 112	C = 0	D = -17

70) O=C(O)c1ccc2c(c1)C1c3ccccc3CC1C(c1cccc(Cl)c1)N2 (stereo unspecified)
  A = 102	B = 105	C = 48	D = 10

71) O=C(NC1CCCCC1)N1CCN(C2CCCCC2)CC1
  A = 101	B = 103	C = -23	D = 0

72) C=CCn1c(C(O)c2ccccc2)n[nH]c1=S (stereo unspecified)
  A = 98	B = 102	C = 37	D = -11

73) CCOc1ccc(N2C(=O)CC(Sc3ncccc3C(=O)O)C2=O)cc1 (stereo unspecified)
  A = 104	B = 106	C = 24	D = 2

74) COC(=O)c1c(CC(C)C)csc1N
  A = 102	B = 108	C = -12	D = 14

75) Cc1nc(Cc2nnc(SCCCn3c(=O)[nH]c4ccccc43)o2)cs1
  A = 102	B = 101	C = 4	D = -14

76) CCSC1=C(C#N)C(c2ccccc2Cl)C(C#N)=C(N)N1 (stereo unspecified)
  A = 99	B = 104	C = 1	D = -2

77) CCN(CC)C(=O)c1sc2ccccc2c1Cl
  A = 102	B = 102	C = -16	D = -74

78) Cn1cnc2cc(NC(=O)c3cccs3)ccc21
  A = 101	B = 101	C = 14	D = -33

79) O=C(COC(=O)C1CCC1)c1cc2ccccc2o1
  A = 103	B = 97	C = -10	D = x

80) Cc1ncc(CO)c2cc(C(N)=S)c(=Nc3ccc(S(N)(=O)=O)cc3)oc12
  A = 102	B = 104	C = 7	D = -10

81) CCN1CCCCCC1CO (stereo unspecified)
  A = 102	B = 105	C = -18	D = -6

82) Nc1c(Br)cc(Br)cc1Br
  A = 104	B = 103	C = -1	D = -59

83) NCC1(N2CCCCC2)CCCCC1
  A = 104	B = 104	C = -2	D = 6

Outcome played no part in choosing rows. About 2% of those tested had a hit in this group.
